AID504770: growth inhibitors of E. coli YBA685 in a screen for V. cholerae RctB (chromosome II replication) inhibitors | E. coli YBA685 rctB-dependent plasmid, OD600 growth, 3 h; active compounds read low | z-score (no concentration beside the values) | 130,000 compounds, 0.27% hits;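 active = z-score under -2 on both plates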;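 also: wells of about 30 µL received 100 nL stock; score is relative to mean and SD of the test wells; the first replicate is given; strong numbers were not always called active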
CapD inh: CapD enzyme inhibition. purified CapD enzyme, fluorescence intensity read-out; active compounds read low; some hits fall short of the stated cut. z-score (no concentration beside the values). 140,000 compounds, 0.23% hits. AID 492967;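 active = z-score under -4 in either of two replicates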;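 also: stock transfer was 100 nL into about 40 µL; score is relative to mean and spread of the plate; one replicate is shown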
* = called active by the depositor; / = no result given.

SMILES	AID504770	CapD inh
CCC(C)NC(=O)c1ccc(N(CC)CC)cc1 (stereo not given)	1.6	-0.36
N#CCc1ccc(OCc2ccc(Cl)cc2)cc1	/	0.16
COCCN(C(=O)c1ccc(C(C)(C)C)cc1)C1CCN(C)CC1	/	-0.69
CCN(CC)CCN(C)Cc1cc(OC)c(OC)cc1OC	-1.1	-0.12
COc1ccc(N/C=C2\C(=O)c3c(sc(C)c3C)N(C)S2(=O)=O)cc1	1.4	-0.36
CC1=C2[C@H]3OC(=O)[C@@H](C)[C@@H]3CC[C@@]2(C)C=CC1=O	/	0.3
O=C1C2C(c3ccccc3)OC3(C(=O)c4ccccc4C3=O)C2C(=O)N1c1ccccc1Cl (stereo not given)	/	-0.47
O=C1c2ccccc2CCC1C1(O)C(=O)Nc2ccc(Br)cc21 (stereo not given)	/	-0.48
CC(=O)Nc1ccccc1OCCOc1ccccc1NC(C)=O	-0.35	1.2
O=c1[nH]nc2c3c(cccc13)-c1ccccc1-2	1	/
COc1cccc(OC)c1CNC(=O)CCC(=O)N1CCNC(=O)CC1	/	-0.29
CC1=NN(c2cccc(Cl)c2)C(=O)C1	-0.15	1.1
Cc1cc(C)c(C#N)c(Oc2ccc(F)cc2)n1	-0.6	-0.38
O=C(Oc1ccc(Oc2ccccc2)cc1)c1cccc([N+](=O)[O-])c1	/	-0.22
CN1CCN(Cc2cc(=O)n3ccsc3n2)CC1	1.1	2.2
CCSc1sc(CC)cc1C1C(C(=O)Nc2ccccn2)=C(C)NC2=C1C(=O)CC(C)(C)C2 (stereo not given)	/	0.83
CC1=C(C(=O)Nc2ccc(C(=O)NCc3ccc4c(c3)OCO4)cc2)SCCO1	0.2	0.86
CC1=C(c2nc(-c3ccccc3)no2)C(c2ccsc2)NC(=S)N1 (stereo not given)	0.75	-0.62
COCCN(C1CCN(C(=O)c2cc(OC)c(OC)c(OC)c2)CC1)S(=O)(=O)c1ccccc1	/	-0.34
COc1cc(/C=C2\SC(=N)N(c3ccc(F)cc3)C2=O)ccc1O	/	0.07

Exported as a markdown table: 15 of the compounds above.
| mol | AID504770 | CapD inh |
| --- | --- | --- |
| CC1=C2[C@H]3OC(=O)[C@@H](C)[C@@H]3CC[C@@]2(C)C=CC1=O | / | 0.3 |
| O=C1C2C(c3ccccc3)OC3(C(=O)c4ccccc4C3=O)C2C(=O)N1c1ccccc1Cl (stereo not given) | / | -0.47 |
| O=C1c2ccccc2CCC1C1(O)C(=O)Nc2ccc(Br)cc21 (stereo not given) | / | -0.48 |
| CC(=O)Nc1ccccc1OCCOc1ccccc1NC(C)=O | -0.35 | 1.2 |
| O=c1[nH]nc2c3c(cccc13)-c1ccccc1-2 | 1 | / |
| COc1cccc(OC)c1CNC(=O)CCC(=O)N1CCNC(=O)CC1 | / | -0.29 |
| CC1=NN(c2cccc(Cl)c2)C(=O)C1 | -0.15 | 1.1 |
| Cc1cc(C)c(C#N)c(Oc2ccc(F)cc2)n1 | -0.6 | -0.38 |
| O=C(Oc1ccc(Oc2ccccc2)cc1)c1cccc([N+](=O)[O-])c1 | / | -0.22 |
| CN1CCN(Cc2cc(=O)n3ccsc3n2)CC1 | 1.1 | 2.2 |
| CCSc1sc(CC)cc1C1C(C(=O)Nc2ccccn2)=C(C)NC2=C1C(=O)CC(C)(C)C2 (stereo not given) | / | 0.83 |
| CC1=C(C(=O)Nc2ccc(C(=O)NCc3ccc4c(c3)OCO4)cc2)SCCO1 | 0.2 | 0.86 |
| CC1=C(c2nc(-c3ccccc3)no2)C(c2ccsc2)NC(=S)N1 (stereo not given) | 0.75 | -0.62 |
| COCCN(C1CCN(C(=O)c2cc(OC)c(OC)c(OC)c2)CC1)S(=O)(=O)c1ccccc1 | / | -0.34 |
| COc1cc(/C=C2\SC(=N)N(c3ccc(F)cc3)C2=O)ccc1O | / | 0.07 |

(next part)
SMILES	AID504770	CapD inh
Cn1cc(CCC(=O)NCCCc2ccccc2)c2ccccc21	-1.1	0.5
N#C/C(C(=O)c1ccccc1)=C1/CCCCCN1	-0.55	-1.1
CCN1CCCC1CNCc1c(C(=O)O)n(Cc2ccccc2C)c2ccccc12 (stereo not given)	1.8	1.2
c1ccc([S+]2c3ccccc3Nc3ccccc32)cc1	-0.45	-0.77
Cc1ccccc1CSCc1nc2ccccc2c(=O)n1CC#N	-0.55	/
CC(C)(C)C(=O)Nc1ncnc2oc(-c3ccccc3)c(-c3ccccc3)c12	/	81
CCOC(=O)C1CCN(C(=O)c2cnn(-c3ccccc3)c2C)CC1	-0.35	-1.6
CCOC(=O)Cc1nnn(CC(=O)OCC)n1	0.15	-0.53
COc1ccc2c(c1)c(CC(=O)N1CCC(C(N)=O)CC1)c(C)n2C(=O)c1ccc(Cl)cc1	/	-0.38
COC(=S)Nc1cccc(Cl)c1	-1.1	-0.24
Cc1ccc(-c2nc(C=Nc3cccc(C(=O)N(C)c4ccccc4)c3)c(O)o2)cc1	/	0.23
O=C(O)c1ccccc1NS(=O)(=O)c1cccc(-n2sc3ccccc3c2=O)c1	-0.45	/
CCc1ccc(Nc2nc(N)nc(C(F)(F)F)n2)cc1	-0.05	0.065
COc1ccc(NC(=O)c2ccc(N3CCS(=O)(=O)CC3)cc2)cc1	/	-0.17
CC(C)CCCC(C)C1CCC2C3CC=C4CC(OC(=O)CCC5CCCCC5)CCC4(C)C3CCC12C (stereo not given)	/	0.39
CCOC(=O)c1ccc(CC2SC(N)=NC2=O)cc1 (stereo not given)	-0.85	-0.47
O=C1CCCc2c1[nH]c1ccc(-c3ccccc3)cc21	-0.15	-0.13
Cc1nonc1CSCC(=O)O	2	/
C=CCc1cccc2cc(C(=O)Nc3cccc4c3C(=O)c3ccccc3C4=O)c(=O)oc12	/	-0.3
Cc1ccc(-c2cc(-c3ccccc3)no2)c(O)c1	-0.65	0.78
COc1ccc(OC)c(N=c2ssc3c2-c2ccccc2NC3(C)C)c1	/	-0.65
CCN(C(=O)Cc1c(C(=O)O)n(CC)c2ccccc12)c1cccc(Cl)c1	0.65	0.88
Cc1ccc(S(=O)(=O)Oc2cc(=O)n(C)c3ccccc23)cc1	/	3.5
NC(=O)c1cc[n+](CC2=C(C(=O)O)N3C(=O)[C@@H](NC(=O)[C@@H](c4ccccc4)S(=O)(=O)[O-])[C@H]3SC2)cc1	/	-0.87
COc1cc(C2Nc3ccc4ncccc4c3C3=C2C(=O)CC(C)(C)C3)cc(OC)c1OC (stereo not given)	/	-0.29
O=C(O)c1nccnc1C(=O)Nc1ccccc1	2.2	0.35
COC(=O)C1C(=O)NC(SCC(=O)Nc2cc(OC)c(Cl)cc2OC)=C(C#N)C1c1ccccc1OC (stereo not given)	/	-0.46
Cc1cc2cc(CNC(=O)c3cc4ccccc4o3)ccc2n1C	0.45	/
CCOC(=O)c1ccc(NC(=O)CSc2nnc(NC(=O)COc3ccc(Cl)cc3)s2)cc1	/	0.01
CN(C)C(=O)Oc1ccc(-c2nnco2)cc1	-0.8	-0.12
O=C(Nc1ccc(Cl)cc1)c1ccc(CSC2=NCCS2)cc1	2.4	-0.21
Fc1ccc(-c2cn3cccnc3n2)cc1	0.8	89
N#CC1=C(N)N(c2ccc([N+](=O)[O-])cc2)C2=C(C(=O)CCC2)C1c1ccc(Br)s1 (stereo not given)	/	-0.66
CC(=O)N1C2C=CC(C2)C1(C(F)(F)F)C(F)(F)F (stereo not given)	-0.55	-0.04
CC(C(=O)N1CCc2ccccc21)N1CCc2ccccc2C1 (stereo not given)	0.05	/
CC(=O)Nc1cccc(C(=O)OCC(=O)N2CCN(c3ccccc3)CC2)c1	0.35	/
COCc1cc(=O)oc2cc(OC(=O)N(C)C)ccc12	-0.15	2
Nc1cccnc1NCc1ccccc1	1.1	0.08
CCN1CCN(Cc2ccc(C)cc2)CC1	0.6	-0.63
Cc1cc(NC(=O)COC(=O)C23CC4CC(CC(C4)C2)C3)no1	0.1	/
CCOC(=O)C1CCN(C(C)C(=O)NC23CC4CC(CC(C4)C2)C3)CC1 (stereo not given)	-0.25	/
CCC(=O)Nc1cccc(OCc2cc(=O)n3nc(CC)sc3n2)c1	0.25	0.29
O=c1cc(CSc2nc3ncccc3[nH]2)nc2ccccn12	0.5	2.5
Cc1cc(C)cc(NC(=S)Nc2cc(C)cc(C)c2)c1	-0.85	0.24
Cc1cc(/C=N/NC=O)c(C)n1-c1ccc(I)cc1	0.65	/
Cc1ccc2c(c1)C1c3sc(=O)[nH]c3SCC1(CC(=O)O)C(=O)O2 (stereo not given)	0.25	/
CCC1=NC(C(F)(F)F)(C(F)(F)F)C2=C(CC(C)(C)CC2=O)N1Cc1ccccc1	-0.4	0.32
CNn1cnc2ccsc2c1=O	/	0.27
Cc1cc(C)n(-c2cc(=O)[nH]c(=O)[nH]2)n1	1.1	-0.49
Cc1ccccc1/C=C/c1c[nH]c2ccccc12	0.2	4.8
Cc1noc(C)c1C(=O)N=C(N)C12CC3CC(CC(C3)C1)C2	/	-0.29
Cc1nn(-c2ccccc2)c(CC(C)(C)C(=O)O)c1C(=O)O	-0.35	0.31
CC1CCCCN1Cc1cn2c(-c3ccc(Br)cc3)nnc2s1 (stereo not given)	0.45	-0.52
CC1CCc2ccccc2N1C(=N)N(C)C (stereo not given)	-0.6	0.4
CC(C)NC(=O)CN1C(=O)C(C)(C)Oc2ccc(C(=O)NC(C)C)cc21	1.8	/
Cc1ncc([N+](=O)[O-])n1CC(C)O (stereo not given)	-0.1	/
COc1ccc(N2CCN(Cc3cc(=O)c(OCc4ccccc4)co3)CC2)cc1	-0.7	/
O=C(Cn1c(=O)oc2ccccc21)N1CCN(S(=O)(=O)/C=C/c2ccccc2)CC1	-1.4	/
O=c1cc(N2CCN(c3ccc(F)cc3)CC2)c(-c2ccccc2)n[nH]1	/	0.42
C/C(=N\NC(N)=S)c1cc2cc(Cl)ccc2o1	/	-0.46

(list continues)
SMILES	AID504770	CapD inh
O=C(NCc1ccc2c(c1)OCO2)c1cc(S(=O)(=O)N2CCOCC2)ccc1Sc1ccc(Br)cc1	/	-0.27
O=C1CSCC(=O)N1c1ncc(C(F)(F)F)cc1Cl	-0.85	0.23
O=C(Nc1ccc(Oc2cccnc2)nc1)c1ccc(Cl)cc1	-1.3	-0.83
Cc1ccc2nc(NC3=NC(c4ccccc4)CC(=O)N3)nc(C)c2c1 (stereo not given)	/	3.4
Clc1cccc(Cl)c1CSc1nnc(N2CCOCC2)n1-c1ccccc1	0.15	/
C=CCSC1=C(C#N)C(c2ccccc2Cl)CC(=O)N1 (stereo not given)	-1.1	0.18
CCC(C)(C)Nc1ncccc1C(=O)O	2.8	/
Cn1c(=O)c2c(nc(Sc3n[nH]c(N)n3)n2Cc2ccccc2Cl)n(C)c1=O	-0.15	-0.23
COc1ccc2c(c1OC)C(=O)O[C@@H]2[C@H]1c2cc3c(cc2CCN1C)OCO3	/	0.46
C=CCNC(=O)C#Cc1ccccc1	-0.6	0.41
CC(C)CC(=O)Nc1ccncc1	0.6	-0.005
CCSc1[nH]c2ccccc2c1N=Nc1c(Cl)cc(Cl)cc1Cl	/	-2.2
CN(CCCN1c2ccccc2CCc2ccccc21)C(=O)OCc1ccsc1	/	-0.52
N#CC1=C(S)N=C(N)C(c2nc(-c3ccccc3)cs2)C12CCCCC2 (stereo not given)	-0.65	-0.96
Cc1occc1C(=O)N1CCCCCC1	-0.3	0.015
CC(C)[C@H](NC(=O)c1cccc(S(=O)(=O)N2CCOCC2)c1)C(=O)O	0.05	/
Cc1ccc(Nc2nc(N)nc(CSc3nnnn3-c3ccccc3)n2)cc1	-1.3	-0.72
O=C(CSc1ncccc1C(=O)O)Nc1ccc(Br)cc1	/	-0.66
CCn1c(=NC(=O)c2cccc(OC)c2)sc2cccc(OC)c21	-0.05	/
CC(C)=Cc1nc2cccc(F)c2c(=O)o1	-0.15	0.025
Cc1ccccc1N1S(=O)(=O)c2ccccc2S1(=O)=O	/	-0.28
COc1ccc(Oc2nc(SCc3ccccc3)nc3ccsc23)cc1	/	-0.07
COc1ccc(C(=O)NCc2ccc3[nH]c(C)cc3c2)cc1OC	0.65	0.015
O=C(NCc1nc2ccccc2[nH]1)c1c(F)c(F)c(F)c(F)c1F	-0.2	/
CCOC(=O)C1=C(N)N(c2ccc(OC)cc2)C(=O)C1	-0.05	/
CCOC(=O)C1CCN(C(=O)c2c(-c3ccccc3)noc2C)CC1	-0.5	0.76
C=CCOC(=O)[C@@H](N)Cc1ccc(O)cc1	/	0.085
O=Nc1c(O)[nH]c2c(C(F)(F)F)cccc12	-0.8	/
CCOc1ccc(N2CCN(C(=O)CCC(=O)O)CC2)cc1	/	0.15
Nc1cccc(-c2cc(C(=O)O)c3cc(Br)ccc3n2)c1	-0.15	-0.57
OC1(c2ccc(Cl)cc2Cl)CSC(=S)N1Cc1ccco1 (stereo not given)	-0.4	/
O=C(Cc1ccccc1)n1nc(-c2ccco2)nc1NCc1ccccc1	0.5	-0.44
O=c1oc(-c2cccs2)nc2scc(-c3ccccc3)c12	-1.2	0.38
O=C(NCc1csc(-c2ccccc2)n1)c1ccco1	0.55	-0.06
Cn1c(=NC(=O)CSCC(=O)Nc2nccs2)sc2ccccc21	0.8	/
Cc1cc(NC(=O)CCC2CCCCC2)no1	-0.55	0.14
CCOC(=O)c1c(C)oc2ccc(N(C(=O)c3ccc([N+](=O)[O-])cc3)S(=O)(=O)c3ccc(Cl)cc3)cc12	/	-0.57
CC(OC(=O)c1ccc(S(=O)(=O)N2CCCC2)cc1)C(=O)NC1CC1 (stereo not given)	0.15	/
COc1ccc(CCNC(=O)C2=NNC(=O)CC2)cc1	0.15	/
CCCc1[nH]n(-c2ccc(F)cc2)c(=O)c1C=NCCc1ccccc1	/	-0.59
Cc1ccccc1C(=O)NC(C)c1ccc2c(c1)OCCO2 (stereo not given)	-0.5	1.9
O=C(Nc1ccccc1)c1ccc2ncccc2c1	0.05	-0.54
CCOC(=O)C1=C(NC(=O)c2ccccc2)c2ccccc2CC12CCCCC2	/	-0.045
Cc1nnc(N2CCCC2)c2c1nnn2Cc1ccccc1Cl	0.35	0.25
CCn1c(SCC(=O)Nc2cccc3nsnc23)nc2ccccc21	1.4	/
Cc1c(C(=O)O)oc2c1ccc1ccccc12	0.2	/
N#Cc1cnc(Sc2nnc(-c3ccncc3)o2)nc1N	-0.25	0.94
CCOc1ccc2nc3c(cc2c1)CN(CCO)C(=Nc1cccc(OC)c1)S3	0.15	/

Assay outcomes from PubChem.
